Screening results as filed in PubChem.
CBX7 inh: blocks human CBX7 binding to H3K27me3 peptide. O95931. AlphaScreen His6-CBX7 / biotin-H3K27me3 peptide binding; stronger effect = lower value. normalised signal (fraction of DMSO) (test concentration not listed). 66,000 tested, 1.1% active. AID 1224903; in the data active = normalised signal below about 0.5;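 also: 100 nL library stock added to about 20 µL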
Target sequence (O95931 whole entry, looked up): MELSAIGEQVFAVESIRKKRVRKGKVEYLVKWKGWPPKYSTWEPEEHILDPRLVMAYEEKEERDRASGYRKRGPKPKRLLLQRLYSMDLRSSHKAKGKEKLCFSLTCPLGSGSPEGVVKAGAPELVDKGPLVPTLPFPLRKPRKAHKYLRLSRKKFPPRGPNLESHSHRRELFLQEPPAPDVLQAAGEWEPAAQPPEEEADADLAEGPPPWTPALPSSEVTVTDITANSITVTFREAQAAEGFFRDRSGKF
CBX7 inh z-score: recorded beside CBX7 inh, whose call it bears; z-score; measured here: z-score of CBX7 signal; some inactives read as strong as hits; reference of the scale not given here;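 same signal on another scale; lower means less binding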
Numbers without * were called inactive; & = joins results of further samples. This is a subset (hit frequency here may not be typical).

SMILES	CBX7 inh	CBX7 inh z-score
CC(Oc1ccccc1F)C(=O)Nc1c(C(=O)c2ccc(Br)cc2)oc2ccccc12 (configuration not stated)	1.2	2.3
COc1ccc(Cl)cc1NC(=O)c1cc2c(-c3ccccc3F)nn(C)c2s1	1.1	1.1
CC1CC(O)(C#CCN(C)c2ccccc2)C(C)CN1C (configuration not stated)	1	1.3
COc1ccccc1-c1nnc(SCC(=O)Nc2nc(-c3ccccc3)cs2)o1	0.98	-0.036
O=C(Cn1c2c(c(-c3ccccc3Cl)cc1=O)CCC2)NC1CCCC1	0.86	-1.5
CCOC(=O)c1[nH]c2c(c1Cc1ccccc1OC)C(=O)CC(C)(C)C2	0.97	-0.35
Cc1ccc(-n2nc(-c3ccc(Cl)cc3)cc2-c2ccc(Cl)cc2)cc1Cl	0.95	-0.75
Cc1cccc(C(=O)Nc2ccc3oc(-c4ccc(Cl)cc4Cl)nc3c2)c1	1.1	2.2
CC(=O)Nc1ccccc1-c1nc2ccc(C(=O)NCc3ccccn3)cc2[nH]c1=O	1.2	3.3
Cc1ccc(NC(=O)C2CC2(c2ccccc2)c2ccccc2)cc1C (configuration not stated)	1	0.5
CCN1CCN(C(=O)c2csc3c2CCCCC3)CC1	1.1	2.7
Cc1ccc(Cc2c(C)nc3c(C(=O)N4CCc5ccccc5C4)cnn3c2C)cc1	0.97	-0.83
COc1ccc(Nc2cc(C(=O)NC(C)c3ccc4c(c3)OCCO4)c3ccccc3n2)cc1 (configuration not stated)	0.94	-2.6
Fc1ccc(-c2nnc3ccc(N4CCN(Cc5ccccc5)CC4)nn23)cc1	0.57	-6.1
Cc1ccc(S(=O)(=O)c2nc(-c3ccc(Cl)cc3)oc2N(C)C)cc1	0.91	-1.6
O=c1nc(-c2ccccc2)c2cc(Cl)ccc2[nH]1	1	0.31
CCOc1ccc(NCc2nc3ccccc3n2CCOc2ccccc2)cc1	0.18*	-15*
Cc1c(C(=O)N2CCc3ccccc3C2)oc2ccc(S(=O)(=O)N3CCCCC3)cc12	0.91	-1.2
Cc1ccc(N(CC(=O)Nc2ccc(Cl)cc2)S(=O)(=O)c2c(C)nn(C)c2C)cc1	1.3	1.9
COc1ccccc1-n1c(C)nc2cc(C(=O)NCCc3ccccc3)ccc21	0.96	-0.92
Cc1ccccc1-n1c(=O)cc(N2CCN(c3ccccc3)CC2)[nH]c1=O	0.99	-0.16
CCOC(=O)c1cnc2ccc(OCC)cc2c1NC1CCCCC1	1.3	9
Cc1ccc(CNC(=O)c2ccc(Cl)c(NC3=NC4CS(=O)(=O)CC4S3)c2)cc1 (configuration not stated)	0.96	-0.68
Cc1cccc(Nc2cc(C)c3c(O)cccc3n2)c1C	0.89	-2.2
O=C(Cn1nc(-c2ccc(Cl)cc2)ccc1=O)NCCCN1CCCCC1	1.1	2.4
CCN(CC)C1=Nc2cc(C(=O)NCc3ccc4c(c3)OCO4)ccc2Sc2ccccc21	0.78	-6.7
Cc1ccc(C(=O)Nc2ccc(-c3nc4ccccc4o3)cc2)c(Cl)c1	1.1	0.66
COc1ccccc1-c1cc2nc(C)c(CCC(=O)NC(C)c3ccccc3)c(C)n2n1 (configuration not stated)	1	1.8
COc1ccc(-c2nc3ccccc3o2)cc1NC(=O)COc1cccc(C)c1C	1	-0.0045
CCN(CC)c1cc(C)c2cc(NC(=O)c3cccc(C(F)(F)F)c3)ccc2n1	1	0.028

Some values from the results shown:
`CCN1CCN(C(=O)c2csc3c2CCCCC3)CC1` in CBX7 inh z-score is entered as 2.7
`COc1ccc(Nc2cc(C(=O)NC(C)c3ccc4c(c3)OCCO4)c3ccccc3n2)cc1` (configuration not stated) in CBX7 inh z-score is entered as -2.6

(listing goes on)
SMILES	CBX7 inh	CBX7 inh z-score
Cc1cc(N2CCN(c3ncccn3)CC2)nc2ccc(NC(=O)c3cccc(C(F)(F)F)c3)cc12	0.97	-1.3
Cc1ccc(-c2nc(C(=O)NCCC(C)C)c(C)o2)cc1	1	0.55
COCCCNc1ncnc2c1c(-c1ccccc1)cn2-c1ccc(Br)cc1	1.1	1.3
CCOc1ccc(Nc2nc(C)cc(C)c2C#N)cc1	1	1
CN1CC(=O)Nc2cc(C(=O)NCc3ccccc3)ccc21	1.1	0.071
Cc1cc(=O)n2nc(N3CCCC(C(=O)NCc4ccccn4)C3)sc2n1 (configuration not stated)	1.2	1.7
COc1ccc(N2Cc3cccc(C(=O)Nc4ccc(F)cc4)c3C2=O)cc1	0.81	-3.5
CCCN(CC#CC(O)(c1ccccc1)c1cccnc1)CCC (configuration not stated)	0.83	-2.4
Cc1cc(C)cc(NC(=O)c2cnn(-c3ccccc3)c2C2CCNCC2)c1	1.1	0.83
COc1ccc(OC)c(NC(=O)C(=O)NCCc2ccc(OC)c(OC)c2)c1	0.97	-0.69
CCOc1ccc2cc(-c3nnc(-c4cccc(Br)c4)o3)c(=O)oc2c1	0.96	-0.76
Cn1nc(CC(=O)NC2CCCCCC2)c2ccccc2c1=O	0.95	-0.49
Cc1nn(-c2ccccc2)c(Cl)c1C(=O)Nc1ccc(C)c2cccnc12	0.96	-0.5
CCCC1=Nc2cc(C(=O)NCCN3CCCC3)ccc2Sc2ccccc21	0.78	-3.1
COc1ccc(C2CC(=O)NC3=C2C(=O)CCC3)c(OC)c1 (configuration not stated)	0.96	-0.46
COCCNC(=O)c1cc(Nc2cc(C)cc(C)c2)nc2ccccc12	1.1	1
Cc1cc(=O)oc2cc(Oc3nncc4ccccc34)ccc12	0.97	-0.75
CCOc1ccc(-c2nc3ccc(C(=O)NCCCN(C)C)cc3nc2-c2ccc(OCC)cc2)cc1	1.1	1.9
CCn1c2c(c3cc(Oc4ccccc4)ccc31)CCCC2=O	0.96	-0.43
CCOC(=O)C1CCN(c2c(NCCCN3CCOCC3)c(=O)c2=O)CC1	1	0.89
COc1ccc(Br)cc1C(=O)Nc1ccc(-c2nc3ncccc3o2)cc1	1.1	0.47
COc1ccc(Nc2ncc(C(=O)N3CCN(Cc4ccccc4)CC3)c3ccccc23)cc1	0.78	-3.7
O=C(NCCN1CCOCC1)C1CCN(C(=O)c2cc3sccc3n2Cc2ccc(F)cc2)CC1	1	1
CC(=O)N1CCc2cc(S(=O)(=O)Nc3ccc4c(c3)OCCO4)ccc21	0.98	-0.61
COc1cccc(NC(=O)C(=O)NCCCn2ccnc2)c1	0.87	-1.5
COc1ccc(C)cc1NC(=O)CCCN1C(=O)c2cccnc2C1=O	0.91	-0.94
CCn1nc(C)c(NS(=O)(=O)c2ccccc2)c1C	1.1	3.5
CCOc1ccc(-n2ccnc2SCC(=O)Nc2cc(Cl)ccc2OC)cc1	1.1	0.092
Cc1ccc(C)c(CN2C(=O)c3ccccc3S(=O)(=O)c3ccc(C(=O)N4CCOCC4)cc32)c1	0.96	-1.1
CCOc1ccc(NS(=O)(=O)c2ccc3[nH]c(=O)c(=O)[nH]c3c2)cc1	0.8	-0.26
Cc1ccc(Cn2ccc(NC(=O)c3cc(-c4ccc(Cl)cc4)on3)n2)cc1	1	0.46
CCc1ccccc1Nc1cc(C(=O)NCc2ccccc2OC)c2ccccc2n1	1.3	5
Cc1noc(C)c1S(=O)(=O)Nc1cccc(F)c1	1	0.86
Cc1noc(C)c1S(=O)(=O)N1CCCC(C(=O)Nc2nccs2)C1 (configuration not stated)	1	0.33
CN(C(=O)c1cc2n(n1)C(C(F)(F)F)CC(c1cccs1)N2)C1CCCCC1 (configuration not stated)	0.82	-1.5
COc1ccc(CN(C(=O)c2cccc(Cl)c2)C2CCS(=O)(=O)C2)cc1 (configuration not stated)	0.93	-0.073
OCc1nc2ccc(-c3nc4ccccc4[nH]3)cc2[nH]1	0.92	-1.4
CCCSCCCNC(=O)CS(=O)(=O)Cc1nc(-c2ccccc2F)oc1C	0.98	-0.42
COc1ccc(NC(=O)C2CCN(S(=O)(=O)c3c(C)noc3C)CC2)cc1OC	0.99	-0.36
Cc1ccc2c(c1)-c1c(cnn1CC(=O)N1CCN(c3ncccn3)CC1)CO2	1.1	3.1

As a short view, 7 of the compounds above.
SMILES	CBX7 inh	CBX7 inh z-score
Cc1noc(C)c1S(=O)(=O)Nc1cccc(F)c1	1	0.86
Cc1noc(C)c1S(=O)(=O)N1CCCC(C(=O)Nc2nccs2)C1 (configuration not stated)	1	0.33
CN(C(=O)c1cc2n(n1)C(C(F)(F)F)CC(c1cccs1)N2)C1CCCCC1 (configuration not stated)	0.82	-1.5
COc1ccc(CN(C(=O)c2cccc(Cl)c2)C2CCS(=O)(=O)C2)cc1 (configuration not stated)	0.93	-0.073
OCc1nc2ccc(-c3nc4ccccc4[nH]3)cc2[nH]1	0.92	-1.4
CCCSCCCNC(=O)CS(=O)(=O)Cc1nc(-c2ccccc2F)oc1C	0.98	-0.42
COc1ccc(NC(=O)C2CCN(S(=O)(=O)c3c(C)noc3C)CC2)cc1OC	0.99	-0.36

More results follow:
SMILES	CBX7 inh	CBX7 inh z-score
CCN(CC)c1ccc(NC(=O)c2ccc3c(c2)NC(=O)c2ccccc2S3)c(C)c1	1.1	0.58
COc1ccc(-c2nc3nc[nH]c(=O)c3nc2-c2ccc(OC)cc2)cc1	1.3	1.7
Cc1ccn2c(NC(=O)CC(C)C)c(-c3ccc(F)cc3)nc2c1	1.1	1.7
Cc1ccc2c(c1)N(CCC(=O)NCCCN1CCCC1)C(=O)CO2	1.1	1
Cc1ccc(CCNC(=O)CCCNS(=O)(=O)c2ccc3c(c2)CCC(=O)N3)cc1	1	1.6
COc1cccc(C2C(N3C(=O)c4ccccc4C3=O)C(=O)N2c2ccc(C)cc2)c1 (configuration not stated)	0.93	-2.1
Cn1c(NC(=O)c2ccccc2NC(=O)c2ccccc2)nc2ccccc21	1.2	8.2
COC(=O)c1cc2sc(Cl)cc2n1Cc1nc(-c2ccc(OC)cc2)oc1C	1.1	1.7
CCC1=Nc2cc(C(=O)NCCOC)ccc2Sc2ccc(Cl)cc21	0.95	-2.4
CCOc1cc2c(cc1OCC)C(C1CC=CCC1)NCC2 (configuration not stated)	1.2	2.1
O=C(Nc1ccc(F)cc1F)C12CC3CC(C1)CC(n1cncn1)(C3)C2	1.1&0.91	1.1&-0.12
Cc1ccc(N2C(=O)CSC2c2ccccc2)cc1Cl (configuration not stated)	0.95	-0.49
Cc1nc2cc(C(=O)NCCc3ccccc3)ccc2n1-c1cccc(Cl)c1	0.75	-0.24
O=C(CSc1nccn1-c1ccccc1)NCc1ccccc1	0.91	-2
CCN1C(=O)c2ccccc2S(=O)(=O)c2ccc(C(=O)NCCN3CCCCCC3)cc21	1.1	2.1
COc1ccc(Cl)cc1-n1c(C)nc2cc(C(=O)NCC(OC)OC)ccc21	1	1.1
Cc1onc(-c2ccccc2)c1C(=O)Nc1sc2c(c1C#N)CCC(C)C2 (configuration not stated)	0.84	-3.4
Cc1ccc(C2(c3ccc(C)cc3)C(=O)Nc3ncccc32)cc1	1	-0.042
O=C(CCn1c(=O)[nH]c2ccccc2c1=O)NCCc1c[nH]c2ccccc12	0.9	-0.28
CN(C)C(CNS(=O)(=O)c1ccc(Cl)cc1)c1cccnc1 (configuration not stated)	0.93	-0.59

Part of the list above, as comma-separated lines:
Structure,CBX7 inh,CBX7 inh z-score
CCN1C(=O)c2ccccc2S(=O)(=O)c2ccc(C(=O)NCCN3CCCCCC3)cc21,1.1,2.1
O=C(CCn1c(=O)[nH]c2ccccc2c1=O)NCCc1c[nH]c2ccccc12,0.9,-0.28

The list continues:
SMILES	CBX7 inh	CBX7 inh z-score
COc1ccc(OC)c2[nH]c(=O)c(CCNC(=O)C(C)(C)Oc3ccc(Cl)cc3)cc12	1	0.34
COc1ccc(C(=O)CSc2ncc(-c3ccc(Cl)cc3)[nH]2)cc1	0.96	-1.8
COc1ccc(Nc2cc(C(=O)NCCCN3CCCC3)c3ccccc3n2)cc1	0.87	-2.6
COc1ccc(-c2nc(CS(=O)(=O)CC(=O)NC3CCCCCC3)c(C)o2)cc1	1.1	1.9
O=C(c1ccc(NC2=NC3CS(=O)(=O)CC3S2)cc1)N1CCN(Cc2ccccc2)CC1 (configuration not stated)	1	0.54
COc1cc2c(=O)c(S(=O)(=O)c3ccccc3)cn(Cc3cccc(C)c3)c2cc1OC	0.91	-1.7
CCN(CC)S(=O)(=O)c1ccc2oc(C(=O)Nc3cc(Cl)ccc3OC)c(C)c2c1	1	0.61
CCC(C)NC(=O)c1cc(Nc2ccccc2C)nc2ccccc12 (configuration not stated)	1	0.32
CC1CC(C)CN(C(=O)c2n[nH]c(=O)c3ccccc23)C1 (configuration not stated)	0.97	-0.55
Cc1ccc(F)cc1NC(=O)c1sc2ncn(CC(=O)N3CCOCC3)c(=O)c2c1C	1.1	0.49
Cc1cc(N2CCOCC2)nc2ccc(NC(=O)CCC(=O)NCc3cccs3)cc12	1	0.0048
Cc1ccc(NC(=O)c2cc(-c3ccc(O)cc3)on2)cc1	1	0.091
CC(C)(C)c1ccc(OCC(=O)Nc2cccc(-c3nc4ccccc4[nH]3)c2)cc1	1	0.035
COC(CNS(=O)(=O)c1ccc2c(c1)CCN2C(=O)C1CC1)OC	1	0.3
O=C(NCc1ccc(F)cc1)c1nc2c(nnn2CC2CCCO2)c(=O)[nH]1 (configuration not stated)	0.98	-0.44
Cc1cc(NC(=O)CSc2nc(Nc3ccc(F)c(F)c3)c3ccccc3n2)n[nH]1	0.98	-0.045
CCCCCCc1cc2cc(-c3nnc(Nc4ccc(C)cc4)s3)c(=O)oc2cc1O	1.2	3.7
CCOC(=O)c1[nH]c(C)c(C(=O)NCc2ccccc2)c1C	1.2	2
CC1CCN(CCCNC(=O)CCn2nc(-c3ccccc3)ccc2=O)CC1	1	1.5
Cc1nccc2[nH]c(=O)c(C(=O)NCCN3CCN(c4cccc(Cl)c4)CC3)cc12	0.9	-1.8
Cc1nccc2[nH]c(=O)c(C(=O)NC3CCCC3)cc12	1.2	1.3
CCOc1ccc(Cc2nc(C)c(CC(=O)N3CCOCC3)c(=O)[nH]2)cc1	0.96	-0.39
Cc1cccc(NC(=O)C2CCN(S(=O)(=O)c3cnc[nH]3)CC2)c1	0.9	-1.1
